Screens deposited in PubChem BioAssay by several laboratories.
B2AR ag: agonists of human beta-2 adrenergic receptor inducing internalization; Am2.2-beta2AR cells, FAP receptor internalization, flow cytometry; reference of the scale not given here; response, % (no concentration beside the values); 340,000 tested, 0.43% active; AID 504454;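 active = response above a set limit, near 3 SD of response in nonfluorescent compounds, cut at about 42% in these data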;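 also: stock transfer was 100 nL into about 11 µL; a reference agonist was the positive control; negative values mostly stem from fluorescent compounds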
Target sequence (P07550 whole entry, looked up): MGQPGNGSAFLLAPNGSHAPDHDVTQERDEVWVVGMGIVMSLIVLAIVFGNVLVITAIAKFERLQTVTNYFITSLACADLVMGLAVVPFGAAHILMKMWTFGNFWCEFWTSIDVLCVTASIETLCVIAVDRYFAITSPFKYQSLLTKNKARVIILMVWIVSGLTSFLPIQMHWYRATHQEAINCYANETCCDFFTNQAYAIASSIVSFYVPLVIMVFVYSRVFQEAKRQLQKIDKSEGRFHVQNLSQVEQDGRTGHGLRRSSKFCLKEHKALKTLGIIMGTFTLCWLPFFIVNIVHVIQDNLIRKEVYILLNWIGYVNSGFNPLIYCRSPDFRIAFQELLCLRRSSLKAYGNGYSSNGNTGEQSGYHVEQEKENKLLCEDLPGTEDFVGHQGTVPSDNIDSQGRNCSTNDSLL
UCH37 DUB inh: human UCH37 deubiquitinating enzyme inhibition; AID 588478; purified proteasome/UCH37, Ub-AMC cleavage fluorescence; 330,000 tested, 0.33% active; Q9Y5K5; inhibition, % (test concentration not listed);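 active = mean of two replicates above 20%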;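 also: 0% = compound-free wells with enzyme and 100% = wells lacking proteasome; stock transfer was 100 nL into about 20 µL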
Target sequence (Q9Y5K5 whole entry, looked up): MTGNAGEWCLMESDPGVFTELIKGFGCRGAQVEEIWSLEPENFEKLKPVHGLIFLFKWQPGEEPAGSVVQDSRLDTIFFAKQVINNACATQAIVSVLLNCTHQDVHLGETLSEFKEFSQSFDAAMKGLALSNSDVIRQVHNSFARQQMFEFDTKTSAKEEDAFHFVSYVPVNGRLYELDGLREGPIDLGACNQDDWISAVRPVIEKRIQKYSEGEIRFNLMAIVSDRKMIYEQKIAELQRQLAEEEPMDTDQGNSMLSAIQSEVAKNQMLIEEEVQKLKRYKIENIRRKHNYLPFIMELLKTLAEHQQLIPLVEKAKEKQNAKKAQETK
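Signal – fluorescence, ex 355 nm, em 460 nm · System – Proteasome-bound UCH37 · Input – 0.15 nM proteasome as dispensed · Timing – 30 min preincubation with enzyme, 25 min cleavage at room temperature · Read-out basis – percent inhibition of cleavage signal versus uninhibited and no-proteasome wells · Medium – Tris-HCl pH 7.4 with ATP-MgCl2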
An asterisk follows results filed as active.

molecule	B2AR ag	UCH37 DUB inh
CCOc1ccc2c(c1)C(=NNC(=O)c1ccccn1)c1cc(OCC)ccc1-2	7	2.2
CSc1ccc(S(=O)(=O)NCC(=O)OCC(=O)N(C)CC(=O)Nc2ccc(F)cc2)cc1[N+](=O)[O-]	-1	1.0
Oc1c(CN2CCOCC2)cc(CN2CCOCC2)c(O)c1O	-5	5.4
N#Cc1ccccc1COC(=O)c1ccc2c(c1)OCCO2	7	2.8
CCCCOc1ccc(SCCCN2CCOCC2)cc1	-9	2.4
CCSCc1nc2ccccn2c1Br	-12	-8.8
O=Nc1c2cc3ccccc3[nH]c-2c2ccccc12	2	-2.8
Oc1ccc2ccccc2c1CNc1ccc2ccccc2c1	8	2.6
C[C@]12c3[nH]c4ccc(Cl)cc4c3CCN1C(=O)[C@@H](CC(=O)NCc1cccc(C(F)(F)F)c1)C[C@@H]2C(=O)N1CCCCC1	-1	0.8
COc1cc2cncc(Cc3ccccc3)c2cc1O	2	-240
CN(C)C(=O)CCc1ccc2c3c([nH]c2c1)[C@]1(CCC2CCCC2)[C@@H](C(=O)N2CCOCC2)C[C@H](CC(=O)NCCCn2ccnc2)C(=O)N1CC3	-2	1.2
CC[C@]12c3[nH]c4cc(-c5ccco5)ccc4c3CCN1C(=O)[C@@H](CC(=O)NCCCn1ccnc1)C[C@@H]2C(=O)N1CCN(C(=O)c2ccco2)CC1	3	-1.2
O=C1CCCN1CCc1cccc2ccccc12	10	0.2
CC(C)CC(=O)N1CC=CC[C@@H](c2ccc(Cl)cc2)N(Cc2ccc(Cl)cc2)C(=O)[C@@H]1Cc1ccccc1	0	5.2
CC(Sc1nnc(COc2ccc(Cl)cc2)n1Cc1ccco1)C(=O)N1CCNC1=O (stereo not given)	1	1.4
COc1cccc(CC(NC(C)=O)C(=O)NC2CCN(c3c4c(nc5ncnn35)CCC4)CC2)c1 (stereo not given)	-4	3.4
CC(=O)Nc1cccc2cc(O)ccc12	3	0.7
O=c1[nH]cnc2c1ncn2-c1ccc(Cl)cc1	-6	2.8
CCOCCCn1c(SCC(=O)Nc2oc(C)c3c(C)n[nH]c(=O)c23)nc2ccccc2c1=O	0	6.0
O=C(Nc1ccc(OC(F)(F)F)cc1)C1CCCCN1S(=O)(=O)c1ccccc1 (stereo not given)	3	0.6
Cn1c2ccccc2c(=O)c2c(=O)n(-c3ccc(F)cc3)c(C3CCCCC3)nc21	1	2.7
O=C(Nc1nc(-c2ccco2)c(-c2ccco2)s1)c1ccc(F)cc1F	2	-28
Cc1nn(C)c(C)c1NC(=O)CSc1nc(-c2ccccc2F)nc2c1cnn2-c1ccccc1	5	-7.9
CC(OC(=O)Cn1cc(C(F)(F)F)ccc1=O)C(=O)NC(C)c1ccc(Cl)cc1Cl (stereo not given)	3	4.0
Cc1ccc(NC(=O)C2CCN(S(=O)(=O)c3ccc(C(C)(C)C)cc3)CC2)cc1S(=O)(=O)N1CCOCC1	3	3.0
CCCCN1C=C(C(=O)OCC)C(=O)CC1	-6	1.3
Cc1ccc(C2=NN=C(NC(=O)C(F)(F)F)SC2)cc1	-1	5.4
Cc1cc2c(c(C)c1Br)C(c1ccc3c(c1)OCO3)CC(=O)O2 (stereo not given)	12	6.4
Cc1ccc2c(c1C)NC(=O)C21N2CCCC2C(C(=O)c2ccc3ccccc3c2)C12C(=O)Nc1ccccc12 (stereo not given)	-5	4.0
COc1ccc(C(=O)OCC(=O)Nc2cccc(S(=O)(=O)NC3=NCCCCC3)c2)cc1[N+](=O)[O-]	1	3.0
CCc1ccc([C@@H]2CC=C(C(=O)O)[C@H](c3ccc(C)cc3)N2S(=O)(=O)c2ccc(C)cc2)cc1	5	4.5
O=C1CCC(C(=O)OCc2nnc(-c3ccc(Br)cc3)o2)=NN1	5	2.1
CSc1nc(Cl)c(Br)c(Nc2c[nH]c(=O)[nH]c2=O)n1	3	2.1
Cc1ccc(OCC(=O)O)c(O)c1	-8	2.9
Nc1nnnn1-c1cccc([N+](=O)[O-])c1	2	2.5
CSc1nc(O)c(Nc2ccccc2)c(=O)[nH]1	0	8.7
Cc1ccc(S(=O)(=O)N2C[C@@H]3[C@H]4CC[C@H](C4)[C@@H]3[C@@H](C)[C@H]2c2ccco2)cc1	0	4.8
C=CCOC1=CS(=O)(=O)N(Cc2ccc(Br)cc2)c2ccc(Br)cc21	7	3.8
COc1cc(C(=O)NCCCN2CCCC2=O)ccc1OCc1ccc(Cl)cc1Cl	9	4.8
Cc1cccc(C(=O)OCC(=O)c2ccc(CC(=O)N3CCOCC3)s2)c1C	8	7.4
N#C/C(=C/c1ccc(-c2ccc([N+](=O)[O-])cc2)o1)c1nnc(N2CCOCC2)n1-c1ccccc1	-53	0.9
COC(=O)CC1=C(c2ccc([N+](=O)[O-])cc2)CCC1=O	-1	3.3
CC[C@]12c3[nH]c4ccc(Cl)cc4c3CCN1C(=O)[C@@H](CC(=O)NCCCn1ccnc1)C[C@@H]2C(=O)N1CCN(C(=O)C2CC2)CC1	-1	1.7
O=C(COC(=O)c1ccc(S(=O)(=O)N2CCCCC2)cc1)NCc1ccc(F)cc1	-6	-0.2
COc1ccc(-c2cccc([C@H]3[C@@H]4C=CC[C@@H](C)[C@@H]4C(=O)N3Cc3ccccc3)c2)cc1	8	0.3
CC[C@]12c3[nH]c4cc(CCC(=O)N(C)C)ccc4c3CCN1C(=O)[C@@H](CC(=O)NC(C)(C)C)C[C@@H]2C(=O)N1CCN(C(=O)c2ccco2)CC1	-5	3.2
O=C(NNC(=O)c1ccc(S(=O)(=O)N2CCCC2)cc1)c1ccc(Br)cc1	-10	6.2
COc1ccc(C(CNC(=O)c2cccc(S(=O)(=O)Nc3ccc(F)cc3)c2)N2CCCC2)cc1 (stereo not given)	11	1.7
O=C1NC(=O)N(C2CCCCC2)CC1Br (stereo not given)	3	3.9
Nc1ccc2ccccc2c1[N+](=O)[O-]	-6	2.4
CSc1nc(NCCN(C)C)c2sc3nc(-c4ccco4)c4c(c3c2n1)CCC4	-1	-20
COc1ccc(CNC(=O)Cn2cnc3c(NCc4ccccc4)ncnc32)cc1	-7	2.8
Cc1c(NC(=O)COC(=O)c2ccc(O)cc2)c(=O)n(-c2ccccc2)n1C	1	2.8
Cc1ccc(CNC(=O)Cn2cnc3c(NCc4ccccc4)ncnc32)o1	-11	2.9
O=C(C=Cc1ccccc1)N1CCCCC1	-15	-1.4
O=C(Cc1cccc(NC(=O)C2CCN(C(=O)C3CCCCC3)CC2)c1)Nc1cccc(C(=O)N2CCCCC2)c1	-8	1.8
O=C1NC(=S)NC1Cc1ccc(O)cc1 (stereo not given)	-3	1.9
COc1ccc(C(CNC(=O)c2cccc(NS(=O)(=O)c3ccccc3)c2)N2CCCC2)cc1 (stereo not given)	-1	1.2
C=CCn1c(SCC(=O)c2c(N)n(C3CC3)c(=O)[nH]c2=O)nnc1-c1ccccc1OC	-16	1.5
c1ccc2c(c1)-c1cccc3cncc-2c13	-5	-22

(further entries)
molecule	B2AR ag	UCH37 DUB inh
CC(=O)N1c2ccccc2N2C(c3c(C)c(C)cc(C)c3C)=NON12	18	3.7
COC(=O)[C@]1(C)N[C@H](CN(C)S(=O)(=O)c2ccc(C(F)(F)F)cc2)[C@@H]2C(=O)N(C)C(=O)[C@@H]21	-7	3.0
O=C(C[C@H]1C[C@H](C(=O)N2CCOCC2)[C@@]2(CCC3CCCC3)c3[nH]c4cc(-c5ccco5)ccc4c3CCN2C1=O)NCc1cccc(C(F)(F)F)c1	3	-13
CC(=O)OC1CCC2C3CCC4OC(=O)CCC4C3CCC12C (stereo not given)	-2	3.4
Cc1cccc(-c2nnc(-c3ccc4ccccc4c3)o2)c1	-12	-10
C[C@H](CO)N1C[C@H](C)[C@@H](CN(C)S(=O)(=O)c2ccc(F)cc2)Oc2ccc(NC(=O)Nc3ccc4c(c3)OCO4)cc2C1=O	2	2.6
CC[C@]1(C(=O)OC)[C@H]2C(=O)N(C)C(=O)[C@H]2[C@H]2CN(C)C(=NC3CCCCC3)N21	-4	-1.8
Oc1cc(CNC2CCCCC2)c(O)cc1CNC1CCCCC1	14	2.4
Nc1nc(SCc2ccccc2[N+](=O)[O-])c2ncn(Cc3ccccc3)c2n1	-5	1.6
CC(C)C[C@@H]1CN=C(N)N1C[C@@H]1CCCN1C[C@@H](C(C)C)N1C[C@@H](Cc2ccccc2)N(CCc2ccc(Cl)c(Cl)c2)C1=N	9	4.4
O=C(COC(=O)C12CC3CC(CC(O)(C3)C1)C2)Nc1cccc(Br)c1	-1	1.8
COC(=O)C1CC(C(=O)OC)C2C(C(=O)OC)CC(C(=O)OC)C12 (stereo not given)	2	-0.3
Cc1cccc(N2CC(C(=O)OCC(=O)c3c(N)n(CC(C)C)c(=O)n(C)c3=O)CC2=O)c1C (stereo not given)	14	1.0
Cc1ccc(CN2CC(C(=O)N3CCN(S(=O)(=O)c4ccccc4)CC3)CC2=O)cc1 (stereo not given)	-5	-1.9
C=CCn1c(C)nnc1SCC(=O)Nc1cc(S(=O)(=O)N2CCCC2)ccc1Cl	7	-0.2

Continuation.
Molecule	B2AR ag	UCH37 DUB inh
CC(=O)OC1CCC2(C)C(=CCC3C2CCC2(C)C3CC3ON=C(C)C32)C1 (stereo not given)	1	0.8
Cc1cccc2c1NC(=O)C2=O	14	1.8
COc1ccc(C2/C=C\CC(NC(=O)OCC3c4ccccc4-c4ccccc43)CC(=O)N2Cc2ccccc2F)cc1 (stereo not given)	6	0.8
COC(=O)C1CCN(S(=O)(=O)c2ccc(Br)s2)CC1	-1	2.1
Cn1c2cc(Br)sc2c2cnn(Cc3c(F)cccc3Cl)c(=O)c21	6	0.6
COC(=O)c1cc(C(=O)OCC(=O)NC2CCCCCCC2)cc([N+](=O)[O-])c1	-1	1.5
Cc1cccc(O)c1C	1	4.1
CC(C)(C)S(=O)N1Cc2ccc(CO)cc2[C@H]1CCO (stereo not given in full)	3	0.1
O=C(Nc1cc(Cl)ccc1Cl)N1CCN(C(=O)Nc2cc(Cl)ccc2Cl)CC1	14	3.2
CCCCCCN1C(=O)C(O)=C(C(C)=O)C1c1ccccc1[N+](=O)[O-] (stereo not given)	-4	6.7
CCOC(=O)C1=CN(Cc2cccc(-c3ccc4c(c3)OCO4)c2)S(=O)(=O)N(C)C1C (stereo not given)	-6	-0.1
CC1(C)OC2OC3C(CN)OC(c4ccccc4)OC3C2O1 (stereo not given)	6	0.3

Among those listed so far, these have bromine.
Molecule	B2AR ag	UCH37 DUB inh
CCSCc1nc2ccccn2c1Br	-12	-8.8
Cc1cc2c(c(C)c1Br)C(c1ccc3c(c1)OCO3)CC(=O)O2 (stereo not given)	12	6.4
O=C1CCC(C(=O)OCc2nnc(-c3ccc(Br)cc3)o2)=NN1	5	2.1
CSc1nc(Cl)c(Br)c(Nc2c[nH]c(=O)[nH]c2=O)n1	3	2.1
C=CCOC1=CS(=O)(=O)N(Cc2ccc(Br)cc2)c2ccc(Br)cc21	7	3.8
O=C(NNC(=O)c1ccc(S(=O)(=O)N2CCCC2)cc1)c1ccc(Br)cc1	-10	6.2
O=C1NC(=O)N(C2CCCCC2)CC1Br (stereo not given)	3	3.9
O=C(COC(=O)C12CC3CC(CC(O)(C3)C1)C2)Nc1cccc(Br)c1	-1	1.8
COC(=O)C1CCN(S(=O)(=O)c2ccc(Br)s2)CC1	-1	2.1
Cn1c2cc(Br)sc2c2cnn(Cc3c(F)cccc3Cl)c(=O)c21	6	0.6

Next structures
Molecule	B2AR ag	UCH37 DUB inh
CCN(C(=O)COC(=O)c1cccc(S(=O)(=O)NCc2ccccc2)c1)c1ccccc1	12	-1.8
Cc1ccc(S(=O)(=O)N2CCN(C(=O)COC(=O)COc3ccc(Br)cc3)CC2)c(C)c1	-8	5.1
CN(C(=O)c1cccc(NC(=O)Cc2cccc(NC(=O)C3CCCN(C(=O)c4ccccc4)C3)c2)c1)C1CC1 (stereo not given)	10	4.3
CCOC(=O)C1=C(COC(=O)CNS(=O)(=O)c2c(F)cc(F)cc2Br)NC(=O)NC1C (stereo not given)	2	4.7
O=C1NC(=S)NC1=Cc1ccc(O)cc1	6	12
CN1NC(=O)CC1c1ccccc1 (stereo not given)	-4	1.4
CC[C@]12c3[nH]c4ccc(OC)cc4c3CCN1C(=O)C(CC(=O)NCCC1=CCCCC1)C[C@@H]2C(=O)N1CCN(C(=O)C2CC2)CC1 (stereo not given in full)	-3	1.8
Cc1cc(C)c2c(c1C)C(=O)CCC2	1	7.7
COc1cc(-c2cc(C(=O)Nc3cc(S(=O)(=O)N4CCOCC4)ccc3C)c3ccccc3n2)cc(OC)c1OC	8	-71
CCCCN(CC(=O)Nc1cccc(S(=O)(=O)N2CCCC2)c1)Cc1nc2ccccc2c(=O)[nH]1	3	1.7
CN[C@@H](C)C(=O)NC[C@H]1O[C@@H](n2cnc3c(N)ncnc32)[C@H](O)[C@@H]1O	0	-0.4
O=c1[nH]nc(N=Nc2c(O)[nH]c3ccc(F)cc23)c(=O)[nH]1	-13	15
C[C@H](CO)N1C[C@H](C)[C@@H](CN(C)C(=O)Nc2ccc(C(F)(F)F)cc2)Oc2ccc(NC(=O)NC3CCCCC3)cc2C1=O	1	7.3

An excerpt. The share of hits here may be higher or lower than overall.
